Screens as filed in PubChem BioAssay.
Rango dissoc inh: inhibitors of RanGTP-induced Rango-importin beta complex dissociation; 340,000 compounds, 0.071% hits; Potency, µM (top dose mostly 46.1 µM), inactives show top-dose activity change, negative = inhibition; Biochemical FRET Rango-importin beta, RanGTP-induced dissociation; active means falling FRET ratio curve, often poorly fitted, with flat reads before Ran was added; inconclusive means other falling curves, or compound fluorescence or quenching; inactive means flat or rising ratio curve;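 also: potency is read from the fitted curve at half-maximal effect; % of control where 0% means no effect; nearly all actives have a fitted effect of over 45% in size; -100% = wells without RanGTP and RCC1; the record marks most hits as doubtful in a second field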
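Compounds preincubate 5 min with complex of recombinant Rango and importin beta in PBS with 1 mM DTT. Ran (0.6 uM) loaded with 2 mM GTP plus 0.2 uM RCC1 starts dissociation; FRET is recorded 45 min later.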
miR-21 reporter: raises the signal of a miR-21 reporter. HeLa miR-21 FLuc reporter, luciferase, 48 h. 340,000 tested, under 10 active. AID 2288. Potency, µM (series often up to 38.3 µM), for the others: top-dose reporter change, positive = more light; active = well fitted rising curve with a large enough effect; inconclusive = small, poorly fitted or top-dose-only effect; inactive = no such curve, though single readings can be large or run the other way;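 also: % of control where 0% means no effect; miR-21 action dims this reporter so a rising signal means less miR-21 action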
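HeLa cells stably expressing CMV-driven firefly luciferase with a downstream miR-21 binding sequence, endogenously expressing miR-21, were treated with titrations (up to about 40uM final) for 48 hours at 37 degree Celsius. Luciferase luminescence was read after lysis.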
Rango complex inh: inhibitors of Rango-importin beta complex formation; Q14974; Rango CFP/YFP FRET sensor + importin beta, 45 min; Potency, µM (top dose mostly 92.2 µM), for inactives: at the top dose inhibition of complex formation; 340,000 compounds, 0.031% hits; active = rising FRET ratio curve, often small or poorly fitted; inconclusive = mostly compound fluorescence or quenching in the first reads; inactive = flat curves in all reads;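 also: potency is read from the fitted curve at half-maximal effect; 0% = DMSO wells and 100% = buffer wells lacking importin beta; nearly all actives have a fitted effect of over 15% in size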
Target sequence (Q14974 whole entry, looked up): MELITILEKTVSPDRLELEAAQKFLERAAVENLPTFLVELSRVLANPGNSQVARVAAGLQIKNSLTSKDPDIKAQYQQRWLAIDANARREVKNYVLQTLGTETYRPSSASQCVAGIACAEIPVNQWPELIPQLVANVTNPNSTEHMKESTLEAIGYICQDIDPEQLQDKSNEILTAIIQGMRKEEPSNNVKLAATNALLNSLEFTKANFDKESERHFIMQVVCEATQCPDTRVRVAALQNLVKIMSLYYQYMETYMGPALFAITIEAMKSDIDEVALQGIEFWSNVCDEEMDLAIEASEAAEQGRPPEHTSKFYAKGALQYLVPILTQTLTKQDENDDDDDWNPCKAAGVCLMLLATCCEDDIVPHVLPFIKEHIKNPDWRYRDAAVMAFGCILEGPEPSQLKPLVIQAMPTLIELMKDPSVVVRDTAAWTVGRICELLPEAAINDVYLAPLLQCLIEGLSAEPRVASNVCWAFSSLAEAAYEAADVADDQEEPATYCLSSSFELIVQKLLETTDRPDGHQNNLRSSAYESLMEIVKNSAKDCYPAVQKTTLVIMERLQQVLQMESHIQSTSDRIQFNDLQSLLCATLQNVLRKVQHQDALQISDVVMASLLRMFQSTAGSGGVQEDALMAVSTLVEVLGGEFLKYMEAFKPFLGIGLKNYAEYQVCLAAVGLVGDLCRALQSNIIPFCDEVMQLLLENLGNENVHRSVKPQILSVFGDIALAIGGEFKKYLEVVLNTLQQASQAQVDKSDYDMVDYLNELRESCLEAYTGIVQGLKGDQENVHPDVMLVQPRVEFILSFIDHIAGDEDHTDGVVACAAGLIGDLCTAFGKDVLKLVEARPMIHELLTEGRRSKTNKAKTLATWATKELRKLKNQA
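Inhibition scored from the CFP 486 nm/YFP 530 nm FRET ratio 45 min after adding 0.125 microM importin beta to 50 nM Rango biosensor preincubated 5 min with compound (room temperature, PBS with DTT, Tween-20, BSA). No-importin wells as positive control.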
GLA inh pH 4.5: blocks human alpha-galactosidase A at pH 4.5; purified enzyme, 4-MU-alpha-Gal fluorescence, pH 4.5; activity change, negative = inhibition, % at 105 µM; 230,000 tested, under 10 active; AID 1467; inconclusive = small, poorly fitted or top-dose-only inhibition, or a rising curve; inactive = flat fitted curve, though single readings scatter; no compound was filed as active;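 also: 0% = full activity with enzyme and -100% = basal without enzyme; dose as in the result columns while the protocol names 77 µM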
* hit, by the source's call; ? = inconclusive; · = not tested or not shown; [ ] = another dose, or the depositor's remark. An excerpt, so the mix of outcomes need not match the whole.

SMILES	Rango dissoc inh	miR-21 reporter	Rango complex inh	GLA inh pH 4.5
CC(=O)Nc1ccc(Nc2ccc(N3C(=O)CCCC3=O)cc2[N+](=O)[O-])cc1	8%	-1%	-2.4%	4
Cc1c(Cl)cccc1NC(=O)c1ccc(OCC(=O)NCc2ccccc2)cc1	-6%	-1%	0.3%	3
CCc1cccc2c(C(=O)CN3C(=O)N(C)C4(CCCCC4)C3=O)c[nH]c12	16%	·	0.4%	·
COC(=O)CNC(=O)CSc1nc2sc(-c3ccccc3)cc2c(=O)n1-c1ccccc1	-14%	·	-0.9%	·
CC1=Nc2cc(C(=O)NCCN3CCOCC3)ccc2Sc2c(C)ccc(C)c21	-9%	25%	-0.3%	·
Oc1ccc(C[C@H]2CNC(=S)N2CC2CCCN2C[C@H](Cc2ccc(O)cc2)N2C[C@H](Cc3ccccc3)N(CCc3ccccc3)C2=S)cc1 (stereo not given in full)	4%	·	4.0%	·
COc1ccc(/C=N/NC(=O)c2ccco2)cc1Cn1nc(C)c([N+](=O)[O-])c1C	-22%	6%	-1.5%	2[21.1 µM]
COc1ccc(-c2csc(NC(=O)C(CC(=O)O)N3CCOCC3)n2)cc1 (stereo not given)	7%	-2%	-1.9%	·
COc1ccc(N2CCN(C(=O)COc3ccccc3)CC2)cc1	-2%	-9%	-3.4%	-3
N#Cc1nc(COc2ccc(-c3ccccc3)cc2)oc1NCc1cccnc1	-6%	14%	-3.4%	-4
O=C(NCCCn1ccnc1)c1nc(Cn2cc([N+](=O)[O-])cn2)no1	-5%	1%	-0.5%	·
CCN(Cc1cccc(F)c1)C(=O)c1ccc2ccccc2n1	0%	-40%	12%	·
Cc1ccc(NC(=S)NCCc2ccc(F)cc2)c(C)c1	-13%	-6%	?	-1
C[C@H](CO)N1C[C@H](C)[C@@H](CN(C)S(=O)(=O)c2cn(C)cn2)Oc2c(NC(=O)Nc3ccc(C(F)(F)F)cc3)cccc2C1=O	-17%	·	-1.5%	·
CCN(CC)CCOC(=O)c1ccc(N/C=C(/C#N)c2nc(-c3ccc4c(c3)OCO4)cs2)cc1	-18%	-21%	?	9
O=C(c1ccc2nc(N3CCCCC3)sc2c1)N1CCN(c2ccccn2)CC1	-15%	-12%	-2.5%	-5
Cc1ccc(/C=N/c2sc3c(c2C#N)CCC3)o1	1%	-5%	1.2%	2
CCc1ccc(NC(=O)N2CCCCCC2)cc1	11%	-58%	?	·
CCN1CCN(CC(=O)n2c3c(c4ccccc42)CC(C)CC3)CC1 (stereo not given)	?	-12%	?	-2
Cc1ccc(NC(=O)C2CC(=O)N(c3ccc4c(c3)OCCO4)C2)nc1 (stereo not given)	1%	·	3.6%	·
CCCc1cc(=O)[nH]c2nnc(SCC(=O)Nc3cccc(NC(C)=O)c3)n12	16%	·	-0.5%	·
COc1ccc(CN2C(=O)c3ccccc3C2=O)cc1C(=O)N(C)CC(=O)Nc1c(C)cccc1C	-17%	·	0.6%	·
COC(=O)C(NC(C)=O)(Nc1nc2ccc(S(C)(=O)=O)cc2s1)C(F)(F)F (stereo not given)	1%	-4%	1.1%	10
COc1cc(CC(=O)Nc2nccs2)cc(OC)c1OC	0%	11%	-0.6%	2
CCOC(=O)c1c(C)[nH]c(C(=O)CSc2nccc(C)n2)c1C	-1%	-95%	-2.0%	4

Another view of 5 compounds above.
| compound | Rango dissoc inh | miR-21 reporter | Rango complex inh | GLA inh pH 4.5 |
| --- | --- | --- | --- | --- |
| COc1ccc(-c2csc(NC(=O)C(CC(=O)O)N3CCOCC3)n2)cc1 (stereo not given) | 7% | -2% | -1.9% | · |
| COc1cc(CC(=O)Nc2nccs2)cc(OC)c1OC | 0% | 11% | -0.6% | 2 |
| COc1ccc(/C=N/NC(=O)c2ccco2)cc1Cn1nc(C)c([N+](=O)[O-])c1C | -22% | 6% | -1.5% | 2[21.1 µM] |
| CCOC(=O)c1c(C)[nH]c(C(=O)CSc2nccc(C)n2)c1C | -1% | -95% | -2.0% | 4 |
| CCc1ccc(NC(=O)N2CCCCCC2)cc1 | 11% | -58% | ? | · |

Further entries:
SMILES	Rango dissoc inh	miR-21 reporter	Rango complex inh	GLA inh pH 4.5
Cc1ccccc1NC(=O)c1ccc(OCc2c(C)noc2C)cc1	-6%	·	-1.0%	·
COc1ccc(C(=O)c2sc3nc(C)cc(-c4cccs4)c3c2N)cc1OC	?	-1%	?	-6
COC(=O)Nc1ccccc1C(=O)N1CCCCC1	6%	1%	1.7%	-5
CC(C)OCP(=O)(c1ccccc1)c1ccccc1	8%	-1%	-0.3%	5
Cc1cc(C)c(NC(=O)CC(C)(C)C)c(Cl)c1	10%	-11%	0.1%	-7
Cc1ccc(S(=O)(=O)N2CCC(C(=O)NC3CCCC3)CC2)cc1Cl	4%	-3%	0.5%	·
CC(C)NC(=O)c1ccc(-n2c(=S)[nH]c3ccccc3c2=O)cc1	·	3%	·	6
COc1ccccc1C(=O)N/C(=C\c1cn(C)c2ccccc12)C(=O)NCCCn1ccnc1	?	0%	2.2%	·
CCOC(=O)N1CCN(C(=O)c2cnn(-c3ccccc3)c2NC(=O)c2ccccc2F)CC1	37%	-9%	-2.0%	9
CC1CCCCC1NC(=O)CO/N=C/c1ccc(OC(F)F)cc1 (stereo not given)	-3%	1%	0.1%	-2
CC1(C)O[C@@H]2[C@H](O1)[C@@H](COS(=O)(=O)O)O[C@H]2n1cnc2c(=O)[nH]cnc21	6%	·	3.2%	·
CCCCN1C(=O)C2C3C=CC(C2C1=O)C1C2C(=O)N(CCCC)C(=O)C2C31 (stereo not given)	53%	-3%	0.1%	2
Cn1ccc(NS(=O)(=O)c2cc(Br)ccc2Br)n1	-18%	·	1.5%	·
Cc1ccccc1C(=O)NC(CC(C)C)C(=O)NN1C(=O)c2ccccc2C1=O (stereo not given)	-10%	0%	3.9%	5
COC(=O)CCCNC(=O)CC1C(=O)NCCN1Cc1ccoc1 (stereo not given)	7%	0%	-0.9%	5
CCOc1ncccc1C(=O)NNC(=O)c1csc(N2CCOCC2)n1	2%	·	-1.1%	·
CCOC(=O)C1=C(C)N(c2ccc(C)c(C)c2)C(=O)/C1=C\c1ccco1	2%	-13%	-1.0%	1
COc1cccc2c1cc1c(=O)n(CC(=O)NCCCN3CCCCC3)nc(C)n12	-6%	1%	-0.9%	·
Cc1cc(/C=N/NC(N)=S)c(C)n1-c1cccc(Cl)c1	-1%	3%	0.0%	4
O=C1c2cccc3c([N+](=O)[O-])ccc(c23)C(=O)N1CCc1ccccn1	?	3%	?	-10
COc1ccc(OCCCC(=O)Nc2ccc3c(c2)OCCO3)cc1	3%	-16%	5.2%	-2
CCCOc1ccc(C(=O)NCCO)cc1	0%	-8%	-4.8%	6
COc1ccc(/C=N/NC(=O)Cc2csc(Nc3cccc(C(F)(F)F)c3)n2)c(OC)c1	-13%	-4%	3.4%	?
COc1ccccc1C(=O)OCc1ccc2sc(C)nc2c1	20%	-12%	0.3%	-1
CN(C)S(=O)(=O)c1ccc(N2CCCC2)c(C(=O)Nc2nc3ccccc3s2)c1	-19%	-16%	-0.7%	-3
Additional structures follow:
SMILES	Rango dissoc inh	miR-21 reporter	Rango complex inh	GLA inh pH 4.5
COc1ccc(S(=O)(=O)N2CCCC2CNC(=O)C(=O)NCc2ccc3c(c2)OCO3)cc1 (stereo not given)	8%	·	-1.5%	·
O=C(NCc1ccc(F)cc1)c1ccc2c(c1)S(=O)(=O)c1ccccc1C2=O	13%	·	0.4%	·
Cc1ccc(CNC(=O)C2CCC(=O)N(Cc3ccc(Cl)cc3)C2)cc1F (stereo not given)	-1%	0%	-0.3%	·
CC(C)(C)c1ccc(OCCCCCCN2CCNCC2)cc1	17%	·	8.7%	·
CC(=O)c1ccc(S(=O)(=O)NC2CC(=O)N(c3ccc(C)cc3)C2)cc1 (stereo not given)	11%	·	-2.1%	·
O=C(COC(=O)CN1C(=O)c2cccc([N+](=O)[O-])c2C1=O)NC1CCS(=O)(=O)C1 (stereo not given)	6%	-4%	-4.2%	0
COC(=O)c1nnn(-c2cc(Cl)cc(Cl)c2)c1C(=O)OC	8%	-4%	0.2%	3
CCOCCOC(=O)c1ccc(NC(=O)C2COc3ccccc3O2)cc1 (stereo not given)	-10%	-19%	-1.1%	·
Cc1cccc(-n2ncc(C(=O)NC3CCCC3)c2C2CCN(C(=O)OC(C)(C)C)CC2)c1	1%	-3%	-3.0%	·
Cc1nc(N)nc(-c2ccccc2O)n1	2%	-24%	-2.7%	3
Clc1ccc(OCCn2ccnc2)cc1Cl	-8%	-13%	-4.7%	·
O=C(CSc1ccccc1)N/N=C/c1ccccc1O	0%	7%	-3.0%	-3
CCN1CCN(Cc2c(O)c(Cl)cc3c(C)cc(=O)oc23)CC1	?	-8%	?	?
CCCCCCSc1ccc([C@@H]2[C@H]3C(=O)N(C)C(=O)[C@H]3[C@]3(C(=O)OC)CCCCN23)cc1OC	19%	·	?	·
CN1CCN(c2ccccc2NC(=O)COc2ccc(Cl)cc2)CC1	3%	-2%	0.3%	·
CC(=O)c1sc(NC(=O)CCOc2ccccc2)nc1C	7%	-30%	2.1%	-7
COc1ccc2[nH]c3c(c2c1)CCN1C(=O)N([C@@H](C)C(=O)NCc2ccc(C)cc2)C(=O)[C@]31C	-7%	2%	3.4%	·
COc1ccc(Nc2ncnc3c2cnn3-c2ccccc2)cc1OC	-6%	-17%	-5.4%	-17
COc1ccc(CNS(=O)(=O)c2ccc3c(c2)NC(=O)CS3)cc1	3%	-4%	0.7%	·
O=c1ccnc(Nc2ccc3c(c2)OCCO3)[nH]1	-5%	-1%	-3.1%	6
O=C(Nc1ccc(N2CCOCC2)c(Cl)c1)c1cccc(F)c1	-8%	-24%	2.4%	-13
Cc1cc2ncn(C3CC(=O)N(Cc4ccccc4)C3=O)c2cc1C (stereo not given)	11%	-5%	-3.3%	-1
CCOc1ccc(NC(=O)CCNC(=O)Cn2cnc3ccccc3c2=O)cc1	10%	9%	2.8%	·
CC(C)[C@@H](C(=O)NC1CCN(Cc2ccccc2)CC1)N1C(=O)N2CCc3c([nH]c4ccccc34)[C@@]2(C)C1=O	-7%	?	?	·
O=C(N/N=C/c1cc(Br)c(O)c(Br)c1O)c1cccnc1	?	5%	-1.3%	·
Further compounds:
SMILES	Rango dissoc inh	miR-21 reporter	Rango complex inh	GLA inh pH 4.5
COc1ccc(OC)c2c1cc(C(=O)N[C@@H](Cc1ccccc1)C(=O)O)n2C	1%	0%	0.0%	·
CCOC(=O)c1ccc(NC(=O)c2ccc(NC(=O)C3CCCO3)cc2)cc1 (stereo not given)	6%	17%	?	·
CCc1cccc(NC(=O)CN(c2ccc(OC)cc2)S(=O)(=O)c2c(C)n[nH]c2C)c1	5%	-1%	-1.6%	-1
COc1cccc(N2CCN(CC(=O)Nc3nc(C)c(C(=O)N(C)C)s3)CC2)c1	-7%	15%	3.5%	·
O=C(CCC(=O)Nc1cccnc1)Nc1cccnc1	1%	·	-3.1%	·
CCC(C)NS(=O)(=O)c1ccc(OCC(=O)NCc2ccc(OC)cc2)cc1 (stereo not given)	-18%	0%	-0.1%	0
CC1CC2(NC(=O)NC2=O)C(C)CN1C (stereo not given)	-15%	2%	-0.5%	-5
COc1ccc2c(ccn2S(=O)(=O)c2ccccc2)c1	-1%	0%	-3.0%	·
CC(C)OC(=O)c1ccc(N2C(=O)C3CC=CCC3C2=O)cc1 (stereo not given)	-2%	-15%	-3.5%	-1
O=[N+]([O-])c1ccc(N=Cc2c(O)ccc3ccccc23)cc1	-23%	7%	-2.0%	-7
CC(=O)Nc1cccc(NC(=O)Cc2nc(-c3ccccc3)sc2-c2ccc(C)cc2)c1	-7%	-6%	?	2
Cc1c(NC(=O)CSc2nc3ccccc3n2C)c(=O)n(-c2ccccc2)n1C	24%	-1%	3.8%	5
CC1=CC(C)(C)N2C(=O)C3(C(C#N)=C(N)OC4=C3C(=O)CC(C)(C)C4)c3c(C)c(C)cc1c32 (stereo not given)	-3%	12%	-7.0%	2
C/C(=N\NC(=O)c1ccncc1)C12CC3CC(CC(C3)C1)C2	7%	1%	4.1%	-1
O=C(c1cc(Br)c(Br)s1)N1CCc2ccccc2C1	19%	·	-1.1%	·
CCn1nc(C(=O)NNC(=O)c2ccccc2)c2ccccc2c1=O	15%	·	0.4%	·
